Assay outcomes from PubChem.
miR-21 reporter – miR-21 reporter, rising signal; HeLa miR-21 FLuc reporter, luciferase, 48 h; Potency, µM (doses to about 38.3 µM), for the others: at the top dose reporter change, positive = more light; 340,000 tested, under 10 active; AID 2288; active = well fitted rising curve with a large enough effect; inconclusive = small, poorly fitted or top-dose-only effect; inactive = no such curve, though single readings can be large or run the other way;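 note: % of control where 0% means no effect; miR-21 action dims this reporter so a rising signal means less miR-21 action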
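Compounds were titrated across several concentrations (up to approximately 40 uM) and incubated 48 hours with HeLa miR-21-FLuc reporter cells (miR-21 target sequence downstream of FLuc, endogenous miR-21). Readout was firefly luciferase luminescence after lytic detection reagent.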
GLA inh pH 4.5 – blocks human alpha-galactosidase A at pH 4.5 | P06280 | purified enzyme, 4-MU-alpha-Gal fluorescence, pH 4.5 | activity change, negative = inhibition, % at 105 µM | 230,000 tested, under 10 active | AID 1467; inconclusive = small, poorly fitted or top-dose-only inhibition, or a rising curve; inactive = flat fitted curve, though single readings scatter; no compound was filed as active;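 note: 0% = full activity with enzyme and -100% = basal without enzyme; dose as in the result columns while the protocol names 77 µM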
Rango release inh – inhibition of RanGTP-driven Rango-importin beta dissociation; O95149+P62826; Biochemical FRET Rango-importin beta, RanGTP-induced dissociation; Potency, µM (titrated, usually from 46.1 µM), for inactives: top-dose activity change, negative = inhibition; 340,000 compounds, 0.071% hits; active means falling FRET ratio curve, often poorly fitted, with flat reads before Ran was added; inconclusive means other falling curves, or compound fluorescence or quenching; inactive means flat or rising ratio curve;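 note: potency is the fitted concentration of half-maximal effect; % of control where 0% means no effect; nearly all actives have a fitted effect of over 45% in size; -100% = wells without RanGTP and RCC1; the record marks most hits as doubtful in a second field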
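FRET read at 45 min, room temperature: inhibitors block the CFP/YFP signal rise when RanGTP (0.6 uM Ran, 2 mM GTP, 0.2 uM RCC1) frees Rango (0.1 uM) from importin beta (0.25 uM). Pre-read after 5 min compound exposure flags interference.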
Rango-impB inh – prevents formation of the Rango-importin beta complex. Q14974. Rango CFP/YFP FRET sensor + importin beta, 45 min. Potency, µM (series often up to 92.2 µM), for inactives: top-dose inhibition of complex formation. 340,000 compounds, 0.031% hits. AID 540263; active = rising FRET ratio curve, often small or poorly fitted; inconclusive = mostly compound fluorescence or quenching in the first reads; inactive = flat curves in all reads;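 note: potency is the fitted concentration of half-maximal effect; 0% = DMSO wells and 100% = buffer wells lacking importin beta; nearly all actives have a fitted effect of over 15% in size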
Target sequence (Q14974 whole entry, looked up): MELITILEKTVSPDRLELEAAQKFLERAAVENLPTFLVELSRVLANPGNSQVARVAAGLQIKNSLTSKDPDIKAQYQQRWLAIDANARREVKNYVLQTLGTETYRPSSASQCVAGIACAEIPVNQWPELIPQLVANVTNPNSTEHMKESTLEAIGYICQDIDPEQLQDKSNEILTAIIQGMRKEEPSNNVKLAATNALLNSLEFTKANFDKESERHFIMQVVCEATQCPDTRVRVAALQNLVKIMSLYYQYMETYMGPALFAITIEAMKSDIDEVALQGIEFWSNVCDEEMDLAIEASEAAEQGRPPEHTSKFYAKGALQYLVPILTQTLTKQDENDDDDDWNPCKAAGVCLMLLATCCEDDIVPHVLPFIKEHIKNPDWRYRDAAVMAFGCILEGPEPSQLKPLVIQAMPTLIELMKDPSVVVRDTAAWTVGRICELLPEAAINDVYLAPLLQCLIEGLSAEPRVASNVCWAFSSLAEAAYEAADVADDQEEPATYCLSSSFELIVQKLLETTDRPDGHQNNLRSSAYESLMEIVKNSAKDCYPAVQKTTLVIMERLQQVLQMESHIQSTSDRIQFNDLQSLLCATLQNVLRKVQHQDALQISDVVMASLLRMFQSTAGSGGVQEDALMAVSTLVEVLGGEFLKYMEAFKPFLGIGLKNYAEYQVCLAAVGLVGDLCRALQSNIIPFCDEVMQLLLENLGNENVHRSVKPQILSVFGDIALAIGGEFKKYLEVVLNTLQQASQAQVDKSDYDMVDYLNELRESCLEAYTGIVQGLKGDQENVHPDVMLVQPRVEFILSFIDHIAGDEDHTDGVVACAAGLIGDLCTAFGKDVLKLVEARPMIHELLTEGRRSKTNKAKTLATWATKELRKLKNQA
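Inhibition scored from the CFP 486 nm/YFP 530 nm FRET ratio 45 min after adding 0.125 microM importin beta to 50 nM Rango biosensor preincubated 5 min with compound (room temperature, PBS with DTT, Tween-20, BSA). No-importin wells as positive control.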
An asterisk follows results filed as active; ? = inconclusive; nt = no result given. A portion of the library (hit frequency here may not be typical).

miR-21 reporter | GLA inh pH 4.5 | Rango release inh | Rango-impB inh | molecule
-4% | 8 | 16% | -8.2% | COC(=O)c1[nH]c2cccc(OC)c2c1NC(=O)CCN1CCN(c2ccccc2OC)CC1
1% | -3 | 23% | 6.7% | Cc1ccc(NC(=O)COC(=O)c2ccc([N+](=O)[O-])o2)cc1S(=O)(=O)N1CCCCCC1
-32% | 1 | 3% | 3.4% | S=C(N/N=C/c1ccc(Cl)c(Cl)c1)Nc1ccccc1Cl
nt | nt | 13% | -5.2% | CCOc1ccc(NC(=O)CN(C)C(=O)Cn2cnc3c2c(=O)n(C)c(=O)n3C)cc1OCC
1% | 0 | -4% | 0.9% | Cc1ccn2cc(CCNC(=O)CC3CCCCC3)nc2c1
nt | nt | -1% | -2.4% | O=C(CSc1nnc(-c2cccs2)n1C1CC1)NCC1CCCO1 (stereo not drawn)
nt | nt | 10% | 3.1% | CCc1noc(C)c1C(=O)Nc1ccc(Cl)c(S(=O)(=O)N2CCCCC2)c1
-1% | 11 | 0% | -0.9% | CCOC(=O)COc1nc(-c2ccc(Cl)cc2)cc(-c2ccco2)c1C#N
6% | nt | 15% | 1.2% | Cc1ccc(NC(=O)CN(C)S(=O)(=O)c2ccc3c(c2)n(C)c(=O)c(=O)n3C)cc1
-6% | -7 | 17% | 0.2% | COc1ccc(CCN2C(=O)c3ccccc3C2(O)c2ncc[nH]2)cc1OC (stereo not drawn)
-4% | nt | 34% | 2.2% | Cc1ccc(N=C2C(=O)Nc3ccccc32)c(C)c1
-2% | -11 | -9% | 1.0% | C=CCSc1nc(C)cc(/C=C\c2ccccc2)c1C#N
-2% | -2 | 11% | 0.1% | CSc1ncccc1C(=O)NC(C)C1CC2CCC1C2 (stereo not drawn)
-7% | nt | 1% | 3.7% | Cc1ccc(C2=NN(CC(=O)O)C(=O)CC2)cc1
-2% | ? | -5% | -1.9% | CC(C)N(C(=O)COC(=O)c1cc(Cl)cc(Cl)c1N)C(C)C
nt | nt | 10% | 3.3% | Cn1c(SCC(=O)NN2C(=O)NC(C)(c3ccccc3)C2=O)nnc1-c1ccncc1 (stereo not drawn)
nt | nt | -7% | -2.5% | O=C(NCc1nnnn1-c1ccc(Cl)cc1)c1ccc(Br)o1
nt | nt | 14% | -2.6% | CCCN(C(=O)COC(=O)CCOc1ccccc1)c1c(N)n(Cc2ccccc2)c(=O)[nH]c1=O
-9% | -3 | 1% | 5.4% | O=c1c2[nH]c3ccccc3c2ncn1CCN1CCCCC1
-33% | -2 | 1% | 2.6% | COC(=O)c1ccc2nc(NC(=O)COC(=O)CSc3nc(C)cc(C)n3)sc2c1
-4% | 4 | -15% | 4.7% | CCc1nnc(NC(=O)CCC(=O)N2CCCC2)s1
-11% | 4 | 12% | -1.3% | COc1ccc(/C=C(/NC(=O)c2cccs2)C(=O)N2CCOCC2)cc1OC
-6% | 1 | 26% | -0.8% | Cc1c(/C=N\NC(=O)c2ccc([N+](=O)[O-])cc2)cnn1C
-10% | 7 | 5% | ? | Cc1nc2ccc(NC(=S)N3CCOCC3)cc2nc1C
0% | -6 | 8% | 2.4% | O=C(CSc1nc2ccccc2c(=O)n1-c1ccc(Cl)cc1)N/N=C/C=C/c1ccccc1[N+](=O)[O-]
-8% | nt | 9% | -2.6% | COc1ccc(CNC(=S)Nc2ccccc2Cl)cc1
-7% | 2 | -3% | -2.9% | C=CCc1cc(C)cc(C)c1OCCn1cncn1
-3% | 6 | -1% | -1.2% | O=[N+]([O-])c1ccc(-c2cc(-c3ccncc3)nc3ccc4ccccc4c23)cc1
nt | nt | 0% | -4.2% | COc1ccc([C@@H]2CC=C(C(=O)O)[C@H](c3cccc(Cl)c3)N2S(=O)(=O)c2ccc(Cl)cc2)cc1
-8% | nt | 18% | 2.6% | COc1ccccc1/C=C/C(=O)NCC(=O)N/N=C(/C)c1ccco1
-3% | 3 | 15% | 0.0% | COc1ccccc1C(=O)N(Cc1cccs1)C1CCS(=O)(=O)C1 (stereo not drawn)
nt | nt | -24% | 0.1% | COc1cc(/C=C/C(=O)OCC(=O)N2CCN(S(=O)(=O)c3ccc(C)cc3C)CC2)cc(Cl)c1OC
1% | 3 | nt | nt | CCc1ccc(/C=C2/Sc3ccccc3N(CC(=O)NCCCOC)C2=O)cc1
3% | nt | -7% | 3.3% | CCCCC(NC(=O)COc1cc2c(c3oc(=O)cc(C)c13)CCC(C)(C)O2)C(=O)O (stereo not drawn)
nt | nt | 7% | 2.5% | COc1cccc(NC(=O)C2CCOC2=O)c1 (stereo not drawn)
-10% | 3 | -2% | 2.2% | O=C1C(Oc2ccccc2)C(c2ccc3c(c2)OCO3)N1CCc1ccc(F)cc1 (stereo not drawn)
-6% | 4 | -10% | 0.3% | O=C(OCCOCCN=C1NS(=O)(=O)c2ccccc21)c1ccncc1
-57% | nt | 1% | -0.8% | Cc1ccc(CSc2nc(N)cc(N)n2)cc1
nt | nt | -10% | -0.3% | O=C(Nc1ccc(Cl)cc1)c1nc[nH]c1C(=O)N1CCc2ccccc2C1
-41% | -1 | 4% | 4.8% | O=C(NCc1ccccn1)Nc1ccc(Cl)c(Cl)c1
0% | 1 | -11% | -3.6% | c1ccc2c3c([nH]c2c1)C(C1CCCCC1)N(Cc1ncc[nH]1)CC3 (stereo not drawn)
nt | nt | 11% | 3.6% | O=C1C=C(c2ccc(F)nc2)C[C@@H](c2ccc3c(c2)OCO3)C1
-5% | nt | 13% | 4.1% | O=C(N/N=C/c1ccc2c(c1)OCO2)C(=O)Nc1ccccc1Cl
8% | 2 | -1% | -4.8% | CC(C)CC(=O)Nc1ccccc1N1CCN(c2ccc(F)cc2)CC1
-2% | 5 | -3% | -0.2% | CC(C)NC(=O)NNc1c(Cl)cncc1Cl
nt | nt | -11% | -2.8% | COC(=O)c1cc(-c2ccccc2)n(CCN)c1C
-55% | 2 | ? | -0.1% | O=C(O)C1CC(c2ccccc2)=Nc2ccccc2S1 (stereo not drawn)
-3% | 6 | 6% | 6.5% | COc1cc(NC(=O)COC(=O)CNC(=O)c2ccc(C)s2)cc(OC)c1
0% | nt | 38% | -1.3% | CCCCn1c(N)c(N(CC)C(=O)c2cc(C)cc(C)c2)c(=O)[nH]c1=O
-59% | 6 | 0% | 0.2% | O=C1C2C3C=CC(C3)C2C(=O)N1CCCCCCN1C(=O)C2C3C=CC(C3)C2C1=O (stereo not drawn)

(next part)
miR-21 reporter | GLA inh pH 4.5 | Rango release inh | Rango-impB inh | molecule
-1% | nt | 4% | 2.7% | COc1ccc(CCNC(=O)C2CCN(S(=O)(=O)N3CCC(C)CC3)CC2)cc1OC
-21% | nt | 1% | 1.5% | Cc1ccccc1OCCCC(=O)NC1CCCCC1
-17% | -4 | -11% | -1.0% | N#C/C(=C\c1cccs1)C(=O)N1CCOCC1
nt | nt | 19% | -3.9% | CC1C(=O)N2CCCc3cc(S(=O)(=O)NCc4ccc(F)cc4)cc1c32 (stereo not drawn)
-5% | nt | -7% | 0.5% | COc1ccc(/C=C2/SC(=S)N(NS(=O)(=O)c3ccccc3)C2=O)cc1
12% | -27 | -4% | 2.7% | Cc1ccc(NC(=O)CCNC(=O)c2ccc([N+](=O)[O-])cc2)cc1S(=O)(=O)N(C)C
1% | 5 | 0% | 0.7% | Cc1ccc(S(=O)(=O)N2CCCCC2)cc1NC(=O)COc1ccccc1F
nt | nt | -3% | -0.1% | c1ccc(C[C@H]2CN=C(Nc3ccccc3)N2CC2CCC2)cc1
nt | nt | -2% | -1.0% | CC(=O)N/C(=C\c1ccccc1)C(=O)OCC(=O)Nc1cc(S(=O)(=O)N(C)C)ccc1C
nt | nt | 4% | -1.3% | O=C1c2ccccc2/C(=C\C#Cc2ccccn2)N1c1ccccc1
1% | 6 | 18% | 0.0% | CCOC(=O)c1ccccc1NC(=O)Cn1cnc2c(nnn2-c2ccc(C)cc2)c1=O
1% | 7 | -2% | 4.4% | OCCC1CN(Cc2cnc(N3CCOCC3)s2)CCN1C1CCCC1 (stereo not drawn)
-1% | 7 | -11% | -0.2% | CC(C)OC(=O)CSc1nnc(Cc2ccccc2)n1CC1CCCO1 (stereo not drawn)
-1% | nt | 3% | 0.2% | CS(=O)(=O)c1ccccc1C(=O)Nc1cc2c(cc1C(=O)O)OCCCO2
1% | -1 | 3% | 1.4% | CCOC(=O)Cc1csc(NC(=O)CSc2nncn2C)n1
-27% | 2 | 8% | -0.5% | COc1ccccc1C(=O)Nc1nnc(-c2ccc(F)cc2)o1
-25% | 0 | -19% | ? | Cc1ccc2cc(C#N)c(SCC(=O)NCc3ccco3)nc2c1
nt | nt | -9% | -2.3% | COc1cc(S(=O)(=O)Nc2ccccc2N2CCCCC2)ccc1NC(C)=O
-6% | -20 | 6% | -0.6% | CCOc1ccc(C2=Nn3c(nnc3-c3ccco3)SC2)cc1
nt | nt | 32% | -2.0% | O=C(COc1ccc(Cl)cc1Br)OCC(=O)c1ccc[nH]1
-1% | -2 | 1% | -0.1% | Cc1cc(C)cc(NC(=S)Nc2cccc3cnccc23)c1
-7% | -4 | 25% | -4.0% | O=C(Nc1c(Cl)cc(Cl)cc1C(=O)NCCN1CCOCC1)c1ccc(Cl)cc1Cl
-8% | 3 | -1% | -2.5% | Cn1c(/C(C#N)=C(\O)COc2ccc3ccccc3c2)nc2ccccc21
-6% | 7 | 3% | -6.0% | c1ccc(CCNc2ncnc3sccc23)nc1
-40% | 4 | -3% | -1.3% | CSc1ccc(/C=N/NC(=O)c2sccc2C)cc1
18% | nt | -11% | ? | O=C(c1ccc2c(c1)OCO2)C1CCCN(Cc2ccc(OC(F)F)cc2)C1 (stereo not drawn)
-4% | 6 | -14% | -3.0% | CC(C(=O)Nc1ccc2c(c1)OCCO2)n1nnc(-c2ccccc2)n1 (stereo not drawn)
1% | 4 | nt | nt | Cc1ccc(S(=O)(=O)/N=C2/NC(=O)/C(=C/c3ccncc3)S2)cc1
-4% | -2 | 18% | 3.2% | O=C(Cn1nnc(-c2ccccc2NC(=O)c2ccccc2)n1)Nc1ccc2c(c1)OCCO2
-3% | -9 | -1% | -1.5% | O=C(c1ccco1)N1CCN(S(=O)(=O)c2ccc(S(=O)(=O)NC3CCCC3)cc2)CC1
-3% | -1 | 7% | ? | COc1cc(C2NC(=O)NC(C)=C2C(=O)Nc2cccc(C)c2C)cc(OC)c1OC (stereo not drawn)
nt | nt | -1% | -2.9% | C#CCOCCOCCOCCNc1nc(N2CCN(C(=O)[C@H](CCCCN)n3cc(CN)nn3)CC2)nc(N2CCN(C(=O)[C@H](CO)n3cc([C@@H](N)C(C)C)nn3)CC2)n1
-6% | -6 | -5% | 2.7% | Cc1cc(NCCN2CCOCC2)n2nc(C)c(-c3ccccc3)c2n1
-7% | -6 | 12% | -0.8% | Cc1cc(C(=O)CSc2nc(N)cc(=O)[nH]2)c(C)n1-c1cccc(F)c1
-8% | ? | 0% | -3.9% | O=C(CN(CC1CCCO1)C(=O)CNS(=O)(=O)c1ccc(Cl)cc1)NCC1CCCO1 (stereo not drawn)
-1% | 4 | 24% | 1.7% | CC1=CC(=C(C#N)C#N)C=C(C)N1CCN1CCN(C(=O)Nc2ccc(Cl)c(Cl)c2)CC1
-6% | nt | 12% | -0.5% | O=S(=O)(NCc1ccccc1Cl)c1ccc(-n2cnnn2)cc1
-15% | 1 | -6% | -1.1% | CC(C)CNCC(=O)N1c2ccccc2Sc2ccccc21

Some of the entries so far, in CSV form:
Molecule,miR-21 reporter,GLA inh pH 4.5,Rango release inh,Rango-impB inh
Cc1cc(C(=O)CSc2nc(N)cc(=O)[nH]2)c(C)n1-c1cccc(F)c1,-7%,-6,12%,-0.8%
C#CCOCCOCCOCCNc1nc(N2CCN(C(=O)[C@H](CCCCN)n3cc(CN)nn3)CC2)nc(N2CCN(C(=O)[C@H](CO)n3cc([C@@H](N)C(C)C)nn3)CC2)n1,nt,nt,-1%,-2.9%
CC(C)CNCC(=O)N1c2ccccc2Sc2ccccc21,-15%,1,-6%,-1.1%
O=C(c1ccco1)N1CCN(S(=O)(=O)c2ccc(S(=O)(=O)NC3CCCC3)cc2)CC1,-3%,-9,-1%,-1.5%
